Bioassay records: PubChem BioAssay, Johns Hopkins Ion Channel Center
KCNQ2 inh – KCNQ2 potassium channel inhibitors, primary screen, cell-based, CHO-K1, FluxOR thallium flux, B-score (AID 2156); B-score at 10 µM; 20 min; hits give low values; only compounds with negative scores are shown here; some inactives read as strong as hits; hit rate 1.1% among 310,000;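 active = fluorescence ratio B-score at most minus 3 library SDs, with starting brightness B-score within 2 library SDs, cut at about -5.5 in these data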
Target sequence (O88943 whole entry, looked up): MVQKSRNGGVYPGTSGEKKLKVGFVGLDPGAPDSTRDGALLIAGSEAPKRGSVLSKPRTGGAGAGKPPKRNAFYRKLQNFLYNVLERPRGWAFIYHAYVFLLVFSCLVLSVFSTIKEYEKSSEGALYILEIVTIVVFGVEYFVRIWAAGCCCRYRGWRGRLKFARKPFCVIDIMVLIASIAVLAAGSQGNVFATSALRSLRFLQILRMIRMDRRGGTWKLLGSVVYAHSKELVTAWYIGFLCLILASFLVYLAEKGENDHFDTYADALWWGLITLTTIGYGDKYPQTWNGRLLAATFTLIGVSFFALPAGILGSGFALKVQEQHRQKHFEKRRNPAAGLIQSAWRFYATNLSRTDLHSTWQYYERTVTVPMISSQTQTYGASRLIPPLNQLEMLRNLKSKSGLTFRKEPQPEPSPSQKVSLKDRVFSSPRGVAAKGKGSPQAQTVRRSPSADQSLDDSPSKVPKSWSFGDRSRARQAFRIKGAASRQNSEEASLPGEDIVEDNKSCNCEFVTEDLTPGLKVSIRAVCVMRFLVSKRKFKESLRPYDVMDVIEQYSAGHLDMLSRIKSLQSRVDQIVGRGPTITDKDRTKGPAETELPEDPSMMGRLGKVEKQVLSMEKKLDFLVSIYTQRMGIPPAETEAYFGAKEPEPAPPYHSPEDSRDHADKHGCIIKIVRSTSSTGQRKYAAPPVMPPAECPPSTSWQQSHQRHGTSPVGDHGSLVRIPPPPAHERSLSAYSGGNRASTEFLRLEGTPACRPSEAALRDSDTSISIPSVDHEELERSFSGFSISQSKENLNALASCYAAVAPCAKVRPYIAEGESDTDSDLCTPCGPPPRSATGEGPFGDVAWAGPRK
KCNQ2 inh baseline – further read-out of KCNQ2 inh, marked with its call; B-score; measured here: initial fluorescence intensity artifact check;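 brightness before thallium and not channel activity; 0 = typical well and far values either way flag optical interference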
An asterisk follows results filed as active; i = inactive. These rows are one share of the data; rates above refer to the full screens.

KCNQ2 inh	KCNQ2 inh baseline	SMILES
i	1	COc1ccccc1C(=O)C1CCCN(C(=O)c2ccccn2)C1 (stereo not drawn)
i	0.12	O=C(OCCN1CCN(C2=NS(=O)(=O)c3ccccc32)CC1)c1cccc(Br)c1
i	0.59	COc1ccc(N(CC2CO2)S(=O)(=O)c2ccccc2)cc1 (stereo not drawn)
i	0.84	CN(C)CCNC(=O)c1nn(C)c2c1CCc1ccccc1-2
i	0.2	COc1cccc(CN(C)C(=O)C23CC4CC(CC(NC(C)=O)(C4)C2)C3)c1OC
i	2.5	CC(C)Oc1ccc(C(=O)/C(=C\c2cccs2)c2nc3ccccc3o2)cc1
i	0.34	CCOC(=O)c1ccc(N(CC(=O)NC2CCCCC2)C(=O)CNC(=O)c2ccco2)cc1
i	-0.74	COc1ccc(CNC(=O)C2(CC3CC(c4ccccc4)=NO3)CCN(C(=O)c3cccc(O)c3)CC2)cc1 (stereo not drawn)
i	0.01	c1ccc(Cn2c(-c3ccco3)nc3nc4ccccc4nc32)cc1
i	-0.78	COc1ncnc(OC)c1S(=O)(=O)Nc1ccc(C(F)(F)F)cc1
i	2.3	COc1cc(/C=N/Nc2ccccn2)ccc1O
i	1.6	Cc1cc(C)c(NC(=O)CCCC(=O)O)c(Cl)c1
i	0.02	CCOc1ccc(S(=O)(=O)N(CC)CC(=O)NCc2ccncc2)cc1
i	-1.2	Cc1ccc2c(CC(=O)N3CCN(S(=O)(=O)c4cccs4)CC3)coc2c1
i	0.02	COc1cccc(CN2CCN(c3nc4nonc4nc3N3CCCCC3)CC2=O)c1
i	-0.34	CS(=O)(=O)N1CC(C(=O)NC2CCCC2)Oc2ccc(Cl)cc21 (stereo not drawn)
i	0.46	CC(C)(C)N(Cc1ccccc1)C(=O)c1ccc2c(c1)OCCO2
i	1.6	NC1=NS(=O)(=O)NC1c1ccc(F)cc1 (stereo not drawn)
i	-1.3	COc1ccccc1C1CCN(c2ccc(CO)cc2[N+](=O)[O-])CC1
i	2.7	CCOc1ccc(S(=O)(=O)NCCC(=O)OCC(=O)N2CC(=O)Nc3ccccc32)cc1
i	-0.13	CSc1ccccc1OCc1cc(C(=O)N(C)CC2COCCO2)no1 (stereo not drawn)
i	1.2	Cc1ccc(-c2nnc(-c3ccc4c(c3)OCO4)o2)cc1
i	0.23	Cc1ccc(S(=O)(=O)N2CCN(C(=O)c3ccc(N4CCCC4)c([N+](=O)[O-])c3)CC2)cc1
i	0.88	Cn1c(SCC(=O)NCCc2ccccc2)ncc(C(=O)Nc2ccccc2)c1=O
i	0.6	O=C(O)c1ccc(Cl)c(S(=O)(=O)NCc2ccco2)c1
i	1.3	O=C(NC1CCCCC1)C(c1ccccc1)N(C(=O)c1cccs1)c1ccc2c(c1)OCO2 (stereo not drawn)
i	0.17	O=C1NC2(CCC3(CC2)OCCO3)NN1c1ccc(Cl)cc1
i	0.98	Cc1ccc[n+](CC(=O)Nc2cccc([N+](=O)[O-])c2)c1
i	1.2	Cc1cccc2sc(N(CCCN(C)C)C(=O)c3ccc(C(=O)c4ccccc4)cc3)nc12
i	0.53	Cc1nn(-c2ncc(C(F)(F)F)cc2Cl)c(=O)n1-c1cccc(Cl)c1
i	0.44	CCN1C(=O)C(CC(=O)Nc2ccccc2)N(Cc2ccccn2)C1=S (stereo not drawn)
i	0.82	CC(=O)c1ccc2noc(-c3cccc(F)c3)c2c1
i	-0.23	CCOC(=O)C1CCN(C(=O)c2ccc(SC)cc2OC)CC1
i	-0.28	CCC(CC)NCc1ccc2c(c1)c1ccccc1n2CC
i	0.19	CCOC(=O)[C@@H]1[C@H]2COc3ccccc3[C@@H]2N2C(=O)N(c3ccc(OC)cc3)C(=O)[C@@]12C
i	0.32	Cc1ccc(OCCCc2c(C)n[nH]c2C)cc1
i	0.34	O=C(c1ccco1)N1CCC(c2nc3c(nnn3Cc3ccc(F)cc3)c(=O)[nH]2)CC1
i	-0.45	O=C(Nc1nccs1)c1ccccn1
i	-1	C#Cc1ccc([C@@H]2C=C(C(=O)OCC=C)O[C@H](OCCCCO)C2)cc1
i	-0.62	COc1cc2ccccc2cc1C(=O)NCc1ccncc1
i	2	O=C(NCc1ccccc1F)C1CCCN1C(=O)Nc1ccc(F)cc1 (stereo not drawn)
i	1.5	CC(C)CCNC(=O)c1cc([N+](=O)[O-])ccc1N1CCOCC1
i	-1	COc1ccccc1NC(=O)N(Cc1ccco1)Cc1cc2ccc(C)c(C)c2[nH]c1=O
i	1	CN(C(=O)COC(=O)CCc1c[nH]c2ccccc12)c1ccccc1
i	0.65	CCOC(=O)NCc1ccc(S(=O)(=O)Nc2c(C)cccc2C)cc1
i	0.7	CCOC(=O)c1c(NC(=O)COC(=O)CCS(=O)(=O)c2ccc(C)cc2)sc(C)c1C
-6.3*	-0.5*	COc1ccc(NC(=O)Cc2c(Sc3ccccc3)c3ccccc3n2C)cc1
i	0.63	Cc1cccnc1N(C(=O)Nc1ccccc1)C1=NCC(C)(C)S1
i	0.01	COc1cc(C(=O)NCC2(N3CCCCC3)CCCCC2)ccc1OCC(=O)N1CCOCC1
i	1.4	O=C(Oc1ccc(OC(=O)N2CCOCC2)cc1)c1ccccc1
i	0.06	CCC1(CC)Cc2ccccc2-c2nc3ccccc3c(=O)n21
i	0.06	COc1cc2ccccc2cc1C(=O)Nc1nccs1
i	-0.1	CC1=C(C(=O)OCc2ccccc2)C(c2ccoc2)C(C#N)=C(N)O1 (stereo not drawn)
i	-1.3	COc1ccc(-n2c(=O)c3ccccc3n(CC(=O)NC3CCCCC3)c2=O)cc1OC
i	-1.7	Cc1cc(C)cc(NC(=S)N(CCCN2CCN(C)CC2)Cc2cccs2)c1
i	-0.01	CCOC(=O)CNC(=O)C(Cc1ccccc1)NC(=O)OCc1ccccc1 (stereo not drawn)
i	0.68	CC(=O)c1cc(C#N)c(SCc2ccccn2)nc1C
i	1.3	Cc1nnc(NC(=O)CCNC(=O)c2ccccc2Cl)s1
i	1.9	O=C(c1ccc(Cl)cc1)N1CCN(CCc2ccccn2)CC1
i	0.78	CN1OC(CC(=O)O)N(c2ccc(Cl)cc2)C1=O (stereo not drawn)

Later entries
KCNQ2 inh	KCNQ2 inh baseline	SMILES
i	-0.01	Cc1c(NC(=O)c2cc(C3CC3)on2)c(=O)n(-c2ccccc2)n1C
i	-1.1	CCOC(=O)C1CCN(C(=O)c2cc(C(C)(C)C)nn2Cc2ccccc2)CC1
i	2.5	Cn1c(CC(=O)Nc2ccccc2)nnc1SCCOc1ccccc1
i	-0.85	CCS(=O)(=O)N1CCC(C(=O)NCCCN2CCCCCC2)CC1
i	-1.2	CCc1noc(C)c1C(=O)OCC(=O)N(C)c1c(N)n(Cc2ccccc2)c(=O)[nH]c1=O
i	0.86	Cc1cccc(N(CC(=O)N/N=C/c2ccccc2C(=O)O)S(C)(=O)=O)c1C
i	0.18	Cc1ccc2c3c1C(=O)C(=O)N3C(C)(C)CC2C (stereo not drawn)
i	1.2	O=C(c1ccc(F)cc1)C1CCN(C(=O)c2c(F)cccc2F)CC1
i	0.45	CCCCN1C(N)=NC[C@@H]1CCCCN
i	-1.3	COc1ccc(C2CCCCCN2Cc2nc3ccccc3c(=O)n2CC(N)=O)cc1 (stereo not drawn)
i	-0.26	CC(C)n1cc(CN2CCC(C(=O)Nc3cccc(-c4cccc(Cl)c4)c3)CC2)cn1
i	0.15	Cc1ccc2cccc(NC(=S)NC(=O)c3ccn(C)n3)c2n1
i	0.66	COc1ccccc1NC(=O)C(C)Sc1nnnn1C (stereo not drawn)
i	0.14	CCNC(=S)NNc1nnc(-c2ccccc2)c(-c2ccccc2)n1
i	0.17	CC(Oc1ccc(Br)cc1)C(=O)NNC(=O)CCN1CCN(c2ccccc2)CC1 (stereo not drawn)
i	0.78	O=c1[nH]c(=O)n(Cc2ccccc2)c2nc(-c3cccs3)n(CCO)c12
i	-3.2	O=C(CSc1ccc2ccccc2c1)NCCc1ccc(O)c(O)c1
i	-0.78	Cc1ccc(S(=O)(=O)CCC(=O)OCc2ccc(Cl)c(Cl)c2)cc1
i	0.94	Cc1cc(C(=O)N/N=C/c2ccc3c(c2)OCO3)c(C)n1-c1ccc(F)cc1
i	-0.06	COc1cc(OC)cc(-n2nc(C(=O)N3CC(C)CC(C)C3)c3ccccc3c2=O)c1 (stereo not drawn)
i	-0.81	CCOC(=O)C1CCN(C(=O)CN(c2cccc(OC)c2)S(=O)(=O)c2ccccc2)CC1
i	2	CCOC(=O)C1CCN(CCC(=O)Nc2ccccc2)CC1
i	-0.24	C=CCOc1cccc(C(=O)N2CCCC(Nc3ccc(F)cc3)C2)c1 (stereo not drawn)
i	-0.08	O=C(Nc1ccc(N2CCOCC2)c(Cl)c1)c1cc(F)c(F)cc1Cl
i	1.5	COCCN(C(=O)Cn1nnc2ccccc21)C(C(=O)NC1CCCC1)c1ccc(OC)cc1OC (stereo not drawn)
i	-0.47	C(=C\c1nc(-c2ccccc2)no1)/c1ccccc1
i	2.1	CCOC(=O)c1ccc(NC(=O)CN2C(=O)CSC(C)C2=O)cc1 (stereo not drawn)
i	-1.3	COCCCNc1ncnc2c1sc1nc(-c3ccco3)c3c(c12)CC(C)(C)OC3
i	1.8	COC(=O)c1cc2c(C)c(C)c3ccccn3c-2c1C(=O)OC
i	-0.02	COc1ccc(/C=C2\SC(=O)N(CC(=O)NNC(=O)c3ccccc3O)C2=O)cc1OC

2 of these compounds, reformatted.
| Compound | KCNQ2 inh | KCNQ2 inh baseline |
| --- | --- | --- |
| Cc1c(NC(=O)c2cc(C3CC3)on2)c(=O)n(-c2ccccc2)n1C | i | -0.01 |
| CCOC(=O)C1CCN(C(=O)c2cc(C(C)(C)C)nn2Cc2ccccc2)CC1 | i | -1.1 |

Next compounds
KCNQ2 inh	KCNQ2 inh baseline	SMILES
i	-0.26	O=C1COc2ccc(C(=O)CSc3nnc(-c4cccs4)n3Cc3ccccc3)cc2N1
i	1	COc1ccc(CNC(=O)C2=CC(c3ccc(OC)cc3)=NS(=O)(=O)N2C)cc1
i	1.5	O=C(C1Cc2ccccc2CN1S(=O)(=O)c1cccs1)N1CCCCC1 (stereo not drawn)
i	0.12	CCOc1ccc(C2C(C(=O)c3cccs3)=C(O)C(=O)N2CCN2CCOCC2)cc1 (stereo not drawn)
i	-0.11	Oc1ccc(C2C[C@H]3CC[C@@H]2C3)cc1O (stereo partly drawn)
i	-0.2	Cc1ccc(CN(Cc2cccnc2)C(=S)Nc2cc(Cl)ccc2C)cc1
i	0.74	COc1ccc(-c2cc(-c3n[nH]c(=S)n3-c3ccccc3OC)[nH]n2)cc1
i	0.51	O=C(c1ccccc1)c1c[nH]c(C(=O)NNc2ccccc2)c1
i	0.07	COc1ccc(CNC(=O)CN(C(=O)c2csnn2)c2ccc(F)cc2)cc1
i	1.4	Cn1c(SCCOc2cccc(Cl)c2)nnc1-c1ccncc1
i	0.68	COc1cc(C(=O)N2CCCc3ccccc32)cc(OC)c1OC
i	0.1	COc1cc2c(C#N)c(N3CCc4ccccc4C3)nc(N)c2c(N)n1
i	-1.3	Cn1c(O)c(N=NC(=N)N)c2ccccc21
i	1.2	CS(=O)(=O)N(Cc1ccccc1)c1ccc(C(=O)Nc2ccccc2C(=O)O)cc1
i	0.17	CC1=Nn2c(nnc2-c2ccccc2Cl)SC1
i	-0.82	COc1ccc(CCNC(=O)C23CN(Cc4ccccc4)CC2C(c2cccc([N+](=O)[O-])c2)=NO3)cc1 (stereo not drawn)
i	1	Cc1onc(-c2c(Cl)cccc2Cl)c1C(=O)Nc1c(C)n(C)n(-c2ccccc2)c1=O
i	-0.05	CC(C)(C)c1ccc(C(=O)NCc2ccc(Cl)cc2)cc1
i	1.5	COc1cc(S(=O)(=O)NC2CCCC2)ccc1F
i	-1	CCOc1ccc(CCNC(=O)Cn2c(=O)c3cccn3c3cccnc32)cc1
i	-0.12	Cc1c(NC(=O)CS(=O)(=O)c2ccccc2)c(=O)n(-c2ccccc2)n1C
i	-0.16	Cc1cc2ncn(CCOc3ccccc3C#N)c2cc1C
i	2.6	O=C(CN1CCOc2ccccc21)NCc1ccccc1
i	0.47	COc1ccc(-c2nnn(CCc3nn[nH]n3)n2)cc1OC
i	2.4	C=C(C)Cn1c(N2CC(C)CC(C)C2)nc2c1c(=O)[nH]c(=O)n2C (stereo not drawn)
i	-0.06	CCC[C@@H](CN[C@@H](CNC)[C@H](C)CC)NCC1CCC(C(C)(C)C)CC1 (stereo partly drawn)
i	0.76	CN(C)c1ccc(CN2CCCCCC2)cc1
i	0.76	CC(C)CC(NC(=O)C1CCC(C)CC1)C(=O)Nc1ccccn1 (stereo not drawn)
i	-0.37	O=c1[nH]c(SCc2ccccc2)nc2ccsc12

Molecules above that contain a Cl atom:
KCNQ2 inh	KCNQ2 inh baseline	SMILES
i	1.6	Cc1cc(C)c(NC(=O)CCCC(=O)O)c(Cl)c1
i	-0.34	CS(=O)(=O)N1CC(C(=O)NC2CCCC2)Oc2ccc(Cl)cc21 (stereo not drawn)
i	0.6	O=C(O)c1ccc(Cl)c(S(=O)(=O)NCc2ccco2)c1
i	0.17	O=C1NC2(CCC3(CC2)OCCO3)NN1c1ccc(Cl)cc1
i	0.53	Cc1nn(-c2ncc(C(F)(F)F)cc2Cl)c(=O)n1-c1cccc(Cl)c1
i	1.3	Cc1nnc(NC(=O)CCNC(=O)c2ccccc2Cl)s1
i	1.9	O=C(c1ccc(Cl)cc1)N1CCN(CCc2ccccn2)CC1
i	0.78	CN1OC(CC(=O)O)N(c2ccc(Cl)cc2)C1=O (stereo not drawn)
i	-0.26	CC(C)n1cc(CN2CCC(C(=O)Nc3cccc(-c4cccc(Cl)c4)c3)CC2)cn1
i	-0.78	Cc1ccc(S(=O)(=O)CCC(=O)OCc2ccc(Cl)c(Cl)c2)cc1
i	-0.08	O=C(Nc1ccc(N2CCOCC2)c(Cl)c1)c1cc(F)c(F)cc1Cl
i	-0.2	Cc1ccc(CN(Cc2cccnc2)C(=S)Nc2cc(Cl)ccc2C)cc1
i	1.4	Cn1c(SCCOc2cccc(Cl)c2)nnc1-c1ccncc1
i	0.17	CC1=Nn2c(nnc2-c2ccccc2Cl)SC1
i	1	Cc1onc(-c2c(Cl)cccc2Cl)c1C(=O)Nc1c(C)n(C)n(-c2ccccc2)c1=O
i	-0.05	CC(C)(C)c1ccc(C(=O)NCc2ccc(Cl)cc2)cc1
